Sa RN4220 lethal – S. aureus RN4220 growth inhibition; OD600, 16 h; inhibition, % (concentration not given with the values); actives 0.33% (n = 330,000); AID 1259311;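 active = z-score of -3 or lower and OD600 up to 0.18 on both plates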;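 also: plate controls were untreated cells for no effect and reference antibiotic for full effect; stock transfer was 100 nL into about 80 µL; one replicate is shown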
ugtP null kill – kills S. aureus RN4220 lacking UgtP | AID 1259309 | actives 0.54% (n = 330,000) | growth inhibition, % (no concentration beside the values) | S. aureus RN4220 ugtP deletion, OD600 growth, 16 h; some inactives read as strong as hits;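 active = z-score under -3 and OD600 up to 0.15 on both plates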;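 also: plate controls were untreated wells for no effect and antibiotic for full effect; wells of about 80 µL received 100 nL stock; the first replicate is given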
PrP 5UTR inh – inhibition of PrP 5' UTR reporter expression | actives 0.35% (n = 340,000) | cell-based PrP 5' UTR mRNA reporter, plate reader | inhibition, % (no concentration beside the values);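 active = every replicate at 50% or more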;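 also: 0 = median of the neutral control wells; tested in H4 reporter cells; numbers are from one replicate; inactives centre near -14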
Mtb hypoxia inh – inhibitors of hypoxia-regulated fluorescent reporter in Mycobacterium tuberculosis; actives 0.1% (n = 300,000); M. tuberculosis hypoxia-regulated fluorescent reporter, fluorescence; fluorescence inhibition, % (concentration not given with the values);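 active = 35 to 45% if threefold the growth effect, above 45% if 1.5-fold the growth effect; inactive = the rest, general growth blockers included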;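 also: wells of about 50 µL received 100 nL stock; 0% = vehicle wells and 100% = reference inhibitor wells; whole bacteria with a GFP reporter of the hypoxia response; strong numbers were not always called active; many hits fall short of the cut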
BJeLR lethal – BJeLR cell viability loss. BJeLR (HRASV12) viability, CellTiter-Glo ATP luminescence, 48 h; reference of the scale not given here. inhibition, % (test concentration not listed). actives 0.17% (n = 300,000). AID 1554;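 active = replicate mean above 50%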;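 also: 50 nL library stock added to about 25 µL; numbers are from one replicate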
Autofluor counter – counter-screen for toxin protease inhibitors: compound fluorescence; compound autofluorescence counterscreen, microsphere flow cytometry; hits give high values; fluorescence intensity (test concentration not listed); actives 3.1% (n = 360,000);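 active = at least 3 SD above the mean of all compounds, about 16000 in these data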;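 also: 100 nL of 1 mM stock went into each well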
Mtb hypoxia inh growth – second read-out of Mtb hypoxia inh, no call of its own (marks repeat the call); growth inhibition, %; measured here: M. tuberculosis growth (absorbance);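 0% = vehicle and 100% = reference antibiotic; read after six days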
An asterisk follows results filed as active; . = not tested or not shown; & = joins results of further samples.

SMILES | Sa RN4220 lethal | ugtP null kill | PrP 5UTR inh | Mtb hypoxia inh | Mtb hypoxia inh growth | BJeLR lethal | Autofluor counter
O=C(Cc1ccsc1)Nc1ccc(Cl)cc1Cl | 6.0 | 7 | 7 | 13 | 0 | -2 | 4398
COc1cc2[nH]c(=O)n(CCCC(=O)N3CC=C(c4ccccc4)CC3)c(=O)c2cc1OC | 0.7 | -2 | -10 | 5 | 16 | -11 | 3762
CCn1nc(C)c([N+](=O)[O-])c1C(=O)NNC(=O)c1ccc(Cl)cc1 | 21 | -6 | 13 | -2 | -3 | -8 | 3193
NC(=O)c1c(NC(=O)CSc2nnc(Cc3ccccc3)n2Cc2ccco2)sc2c1CCC2 | 5.1 | -21 | . | -3 | -5 | 6 | 10828
COC(=O)/C(=C\c1c[nH]c2ccccc12)NC(C)=O | 2.1 | 3 | -10 | . | . | 8 | 3100
CC(=O)NC(CCS(C)(=O)=O)C(=O)Nc1c(F)cccc1F (stereo unspecified) | 0.7 | 10 | -18 | . | . | -6 | 2119
CCCc1cc(NCCCO)n2c(nc3ccccc32)c1C#N | 3.3 | 0 | . | 8 | 1 | 3 | 5143
CN(C(=O)c1cccc(NC(=O)C2CCN(C(=O)OC(C)(C)C)CC2)c1)C1CCCCC1 | 9.5 | 0 | -10 | 7 | 8 | . | 4628
COCCn1cnc2c1c(=O)n(CC(=O)NCC(F)(F)F)c(=O)n2Cc1ccccc1 | 3.8 | 9 | -14 | 3 | -3 | -5 | 4043
CCOc1ccc(N(CC(=O)NCc2ccccc2)S(=O)(=O)c2c(C)noc2C)cc1 | 6.6 | 5 | -21 | . | . | 7 | 4164
O=C(CSc1nnc(NC(=O)c2ccccc2)s1)NCc1ccco1 | -4.6 | 2 | -33 | 1 | 1 | -8 | 5454
COc1ccc(-c2noc(CCC(=O)Nc3cccnc3)n2)cc1OC | 4.2 | -1 | -6 | . | . | -11 | 4727
CCn1c(Cc2ccccc2)nnc1SCC(=O)c1cccc([N+](=O)[O-])c1 | 23 | -2 | -6 | 17 | 7 | 1 | 8767
CC(=O)Oc1ccc(N2C(=O)C3C(C2=O)C(C(=O)c2ccc(Cl)cc2)N2CCCC32)cc1 (stereo unspecified) | 4.2 | 0 | -14 | -1 | -1 | -6 | 5004
COc1ccc(C(=O)Nn2c(C)ccc2C)cc1OC | 3.1 | -7 | -7 | . | . | -13 | 2206
O=C(Cc1cccs1)Nc1cccc(-c2nnc(-c3ccco3)o2)c1 | 3.5 | 5 | -40 | 2 | 1 | 19 | 4624
Cc1ccc(C(C)NC(=O)c2c(C)noc2C)cc1C (stereo unspecified) | 0.7 | 2 | 4 | 7 | 1 | -4 | 24941*
CC(C)C(=O)Nc1cc2c3c(c1)CCN3C(=O)CC2 | 1.1 | 6 | -22 | 10 | 3 | 12 | 5115
Cc1nn(Cc2ccc(Cl)cc2Cl)c(C)c1NC(=O)NC12CC3CC(CC(C3)C1)C2 | -0.2 | -11 | -5 | . | . | 1 | 4235
CCOC(=O)Cc1cn(C(=O)OC(C)(C)C)c2ccccc12 | 5.9 | 5 | -10 | 15 | 10 | . | 3923
Cc1c(Cl)c([N+](=O)[O-])nn1CCCC(=O)Nc1sc2c(c1C(N)=O)CCC(C)C2 (stereo unspecified) | 12 | -17 | -31 | 3 | -2 | 2 | 7363
COC(=O)C(C)(C(=O)OC)c1ccccc1[N+](=O)[O-] | 1.6 | 2 | -3 | . | . | -3 | 3031
C/C(=N/O)c1ccccn1 | . | . | -1 | . | . | 9 | 6117
CCOc1ccc(CN2C(=O)c3ccccc3C2C(=O)NCc2cccnc2)cc1 (stereo unspecified) | 0.2 | 8 | -22 | 2 | 7 | 3 | 10817
COc1ccc(-n2cc(C(=O)O)c(=O)cc2C)cc1 | 4.9 | 13 | -22 | 0 | 4 | -3 | 1981
COc1ccc(NN=C(C#N)C(=N)N2CCOCC2)cc1 | 0.8 | -1 | . | 12 | -2 | . | .
N#CN=C(c1ccccc1)c1ccccc1 | 1.5 | 10 | -10 | 3 | -2 | -5 | 5191
CC(C)c1ccc(CNC(=O)C2CCCN2S(=O)(=O)c2ccccc2)cc1 (stereo unspecified) | 4.7 | 2 | -5 | 5 | -3 | -5 | 2859
O=C1Nc2ccccc2C(O)(C(=O)NCc2ccco2)N1c1ccc(Cl)c(Cl)c1 (stereo unspecified) | -9.9 | -18 | -8 | . | . | 2 | 4727
COc1ccc2c(c1)CCCC21NC(=O)NC1=O (stereo unspecified) | 3.0 | -3 | -20 | . | . | 6 | 2519
CC(C)NC(=O)c1sc2nc(-c3cccs3)cc(-c3cccs3)c2c1N | 1.3 | -1 | . | 7 | 5 | -14 | .
Nn1c(C2CCC2)nc2cc(Cl)ccc2c1=O | 4.6 | 1 | 1 | -3 | 2 | -5 | 3037
CCC(C)NC(=O)CNC(=O)c1nn(-c2ccc(OC)c(Cl)c2)c(=O)c2ccccc12 (stereo unspecified) | 4.4 | 13 | -11 | 14 | 3 | -2 | 3891
CCCc1c(C)c2ccccc2[nH]c1=O | 3.0 | 1 | -10 | . | . | -1 | 3605
O=C(NCc1nc2ccccc2[nH]1)C1=CC(c2coc3ccccc3c2=O)CC(OCc2ccc(CO)cc2)O1 (stereo unspecified) | 1.1 | 5 | . | 4 | 5 | . | .
C[C@@]12C(=O)Nc3cc(F)c(F)cc3C(=O)N1C1c3cc(Cl)ccc3OCC1C2c1ccccc1 (stereo partly specified) | -15 | -7 | . | -4 | 4 | . | .

Complete entries, looked up by structure. Order of values: Sa RN4220 lethal, ugtP null kill, PrP 5UTR inh, Mtb hypoxia inh, Mtb hypoxia inh growth, BJeLR lethal, Autofluor counter
COc1ccc(NN=C(C#N)C(=N)N2CCOCC2)cc1 across the screens: 0.8, -1, ., 12, -2, ., .
CC(C)c1ccc(CNC(=O)C2CCCN2S(=O)(=O)c2ccccc2)cc1 (stereo unspecified) across the screens: 4.7, 2, -5, 5, -3, -5, 2859
O=C1Nc2ccccc2C(O)(C(=O)NCc2ccco2)N1c1ccc(Cl)c(Cl)c1 (stereo unspecified) across the screens: -9.9, -18, -8, ., ., 2, 4727

Just ugtP null kill and Autofluor counter, for some of the entries so far:
Molecule	ugtP null kill	Autofluor counter
CCC(C)NC(=O)CNC(=O)c1nn(-c2ccc(OC)c(Cl)c2)c(=O)c2ccccc12 (stereo unspecified)	13	3891
CCCc1c(C)c2ccccc2[nH]c1=O	1	3605

Next compounds.
SMILES | Sa RN4220 lethal | ugtP null kill | PrP 5UTR inh | Mtb hypoxia inh | Mtb hypoxia inh growth | BJeLR lethal | Autofluor counter
CC(C)(C)c1ccc(C(=O)c2cn[nH]c2-c2ccccc2O)cc1 | -0.5 | 12 | -63 | 9 | 8 | 0 | 3971
CCc1noc(C)c1C(=O)N(C)CC(=O)Nc1ccccc1C(F)(F)F | 0.1 | 0 | -7 | -3 | 12 | 8 | .
CN(C(=O)COC(=O)CNC(=O)C12CC3CC(CC(C3)C1)C2)c1ccccc1 | -1.1 | 8 | -25 | 12 | 7 | -16 | 5670
COc1ccc2c(c1)C(=NOC(=O)c1cccs1)CCC2 | 2.6 | -3 | . | 8 | 13 | . | .
CC(C)CNC(=O)c1c(N)n(N=Cc2ccccn2)c2nc3ccccc3nc12 | 7.5 | -1 | . | 7 | 5 | . | .
CCn1c(CNC(=O)COc2ccc(C(C)C)cc2)nnc1SCC(=O)Nc1ccccc1 | 14 | -4 | -43 | -5 | -6 | 2 | 10506
CC(C(=O)OCn1nnc2ccccc2c1=O)N1C(=O)c2ccccc2C1=O (stereo unspecified) | 3.1 | 6 | -25 | 7 | 3 | -8 | 8979
CCc1ccccc1NC(=O)Cn1ccn(-c2ccc(OC)cc2)c(=O)c1=O | 2.4 | 5 | -27 | 8 | 2 | 8 | 4105
COc1cccc(/C(N)=N/OC(=O)Cc2ccccc2[N+](=O)[O-])c1 | 5.2 | 3 | -10 | -1 | 6 | 7 | 4766
Clc1cccc(NCc2cn3cccnc3n2)c1 | 2.3 | 6 | -13 | 10 | -3 | 3 | 6004
Cc1c(Cl)cccc1NC(=S)N1CCN(c2ccccn2)CC1 | -0.4 | -2 | -30 | -1 | -1 | -10 | 1955
COc1ccc(CNC(=O)CCC(=O)Nc2cccnc2)cc1 | 1.8 | -1 | -12 | -5 | 5 | -9 | 3849

Filtered by structure: those above with a thiophene ring, fused or not
SMILES | Sa RN4220 lethal | ugtP null kill | PrP 5UTR inh | Mtb hypoxia inh | Mtb hypoxia inh growth | BJeLR lethal | Autofluor counter
O=C(Cc1ccsc1)Nc1ccc(Cl)cc1Cl | 6.0 | 7 | 7 | 13 | 0 | -2 | 4398
NC(=O)c1c(NC(=O)CSc2nnc(Cc3ccccc3)n2Cc2ccco2)sc2c1CCC2 | 5.1 | -21 | . | -3 | -5 | 6 | 10828
O=C(Cc1cccs1)Nc1cccc(-c2nnc(-c3ccco3)o2)c1 | 3.5 | 5 | -40 | 2 | 1 | 19 | 4624
Cc1c(Cl)c([N+](=O)[O-])nn1CCCC(=O)Nc1sc2c(c1C(N)=O)CCC(C)C2 (stereo unspecified) | 12 | -17 | -31 | 3 | -2 | 2 | 7363
CC(C)NC(=O)c1sc2nc(-c3cccs3)cc(-c3cccs3)c2c1N | 1.3 | -1 | . | 7 | 5 | -14 | .
COc1ccc2c(c1)C(=NOC(=O)c1cccs1)CCC2 | 2.6 | -3 | . | 8 | 13 | . | .

(further entries)
SMILES | Sa RN4220 lethal | ugtP null kill | PrP 5UTR inh | Mtb hypoxia inh | Mtb hypoxia inh growth | BJeLR lethal | Autofluor counter
COCNc1nc(OCC#N)nc(N(C)C)n1 | 2.7 | 9 | -24 | 5 | 8 | 9 | 15807
Cc1cc(C)cc(NC(=S)NCCSc2ccc(Cl)cc2)c1 | -13 | -34 | -10 | 5 | -1 | -7 | 2459
COc1ccc(C=NNC(=O)c2cccnc2)cc1CN1CCc2cc(OC)c(OC)cc2C1C (stereo unspecified) | -5.1 | 2 | . | 4 | 2 | . | .
COc1ccc(OC)c(CN2CCC(N3CCC(C(=O)NC4CC4)CC3)CC2)c1 | 2.0 | 4 | -17 | -6 | 1 | -7 | 6972
O=S(=O)(c1cccc(-c2csc(N/N=C/c3ccco3)n2)c1)N1CCOCC1 | . | . | -6 | . | . | -10 | 4440
COc1cccc(N(CC(=O)NC(C)c2ccccc2)S(C)(=O)=O)c1 (stereo unspecified) | 3.8 | 5 | -20 | 11 | 7 | -3 | 5165
O=C(Nc1ccccc1)N1CCN(S(=O)(=O)c2ccccc2)CC1 | 3.3 | -5 | -9 | -2 | 5 | 7 | 3515
N#Cc1nc(-c2ccco2)oc1N1CCC(C(N)=O)CC1 | 8.3 | 2 | -13 | -4 | -8 | 3 | 2852
Cc1cc(SCC(=O)NC(=O)NCc2ccco2)nc2c(C)cccc12 | 6.9 | 28 | -13 | -4 | -12 | -5 | 8062
Cn1ncc2c(Nc3cccc(C(=O)O)c3)ncnc21 | 5.1 | 1 | -96 | 6 | 6 | 4 | 7852
CCCCCCCC(=O)NNC(=O)c1c(O)c2ccccc2n(CCC)c1=O | 98* | 78 | -23 | 3 | 0 | -2 | 2111
COC(=O)C1=C(c2cc3ccccc3o2)C[C@@H]2CC[C@H]1N2C(=O)NCc1cccc2ccccc12 | . | . | 5 | . | . | -4 | 3837
CCN(CC)C(=O)c1[nH]cnc1C(=O)NC(C)c1ccccc1 (stereo unspecified) | 1.9&3.6 | 7&-2 | . | 4&2 | 8&7 | . | .
CC(Sc1nnc(C2CC2)n1C1CC1)C(=O)c1ccc(Br)cc1 (stereo unspecified) | 5.1 | 9 | -14 | 6 | 1 | . | 4859
C=CC#CC[N+]1(CC#Cc2ccccc2)CCOCC1 | 2.1 | -4 | -2 | 11 | -1 | -4 | 2451
CCn1c(SCC(=O)N/N=C/C(C)=C\c2ccco2)nnc1-c1ccccc1 | . | . | -14 | . | . | 1 | 2069
O=S(=O)(c1ccc2ccccc2c1)N(CC(O)COCc1ccco1)c1ccccc1 (stereo unspecified) | 12 | -2 | -73 | -3 | 10 | 6 | 23464*
COc1ccc(OC)c(NS(=O)(=O)Cc2ccccc2)c1 | -0.7 | -8 | . | -12 | -2 | 3 | .
CCOc1ccc(NC(=O)CCCN2C(=S)NC(C)(C)CC2C)cc1 (stereo unspecified) | 1.7 | 5 | -11 | 14 | -3 | -10 | 7702

Assay outcomes (PubChem BioAssay)
